High-throughput results deposited in PubChem by several laboratories.
HIV Env fusion: inhibitors of HIV Env-mediated cell fusion; HeLa-JRFL Env/CEM21 cell fusion, luciferase; inhibition, % at 12.3 µM; hit rate 1.1% among 360,000;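 active = mean replicate inhibition score of at least 50 and every replicate individually at or above 50; inconclusive = only one of the two criteria met; inactive = mean below 50 and not all replicates reaching 50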;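 note: 0% = plate neutral controls and 100% = maraviroc near 300 nM; one replicate is shown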
eIF4H FP inh: inhibitors of RNA binding by human eIF4H | AID 2012 | eIF4H fluorescence polarization binding assay | hit rate 0.94% among 290,000 | inhibition, % at 35 µM;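 active = 50% or more with normal probe brightness, or confirmed in later tests; inconclusive = above 50% with abnormal brightness, or retests that disagree; inactive = below 50% or failed in later tests; about a fifth of its hits are not listed in these tables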;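 note: calls also rest on retests at 20 µM and on dose response follow-up; 0% = protein and probe with vehicle and 100% = probe without protein; strong numbers were not always called active; many hits fall short of the cut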
UUG fidelity: yeast start codon fidelity modulation. hit rate 0.13% among 350,000. activity score, % at 18.7 µM. S. cerevisiae UUG-firefly luciferase reporter, luminescence/redox ratio;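 active = replicate mean at a twofold rise or more, about +100% in these data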;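 note: firefly luciferase made from a UUG start codon reports start codon fidelity; reporter light over untreated wells divided by growth signal over untreated wells; some hits fall short of that in this replicate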
CSC inhib: blocks cancer stem cells. cancer stem cell-like cells viability, luminescence. hit rate 1.1% among 300,000. AID 2717. inhibition, % at 7.5 µM;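 active = mean at 75% or more and at least half the replicates too; inconclusive = mean and replicates disagree; tested in HMLE shEcad cells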;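 note: 0% = median of negative and 100% = median of positive control wells; the first replicate is given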
MT1-MMP act inh: inhibitors of human MT1-MMP activation | P50281 | HT1080 RFP-PRO-GFP cells, GFP/RFP ratio fluorescence, overnight; percent of plate control window, DMSO zero | GFP/RFP ratio change, % at 20 µM | AID 651647 | hit rate 0.061% among 360,000;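 active = GFP/RFP ratio change of at least 30% with cell ATP level not reduced by more than half and red fluorescence within 50% of control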; note: strong numbers were not always called active
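Test system: HT1080 cells expressing an RFP-PRO-GFP fluorescent reporter construct / Compound dosing: single-point 20 µM compound, 1% DMSO / Schedule: cells overnight before dosing, compound overnight, 37 °C, 5% CO2 / Evaluation: GFP/RFP fluorescence ratio / Control set: DMSO and RFP-L50D-GFP cell wells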
PABP FP inh: blocks human PABP binding to poly(A) RNA; P11940; fluorescence polarization; inhibition, % at 35 µM; hit rate 1% among 290,000; AID 2014;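 active = 50% or more with normal probe brightness, or confirmed in later tests; inconclusive = above 50% with abnormal brightness, or retests that disagree; inactive = below 50% or failed in later tests; about a fifth of its hits are not listed in these tables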;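 note: calls also rest on retests at 20 µM and on dose response follow-up; controls were probe without protein and protein plus probe with vehicle; some compounds called inactive have numbers as strong as hits; many hits fall short of the cut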
Target sequence (P11940 whole entry, looked up): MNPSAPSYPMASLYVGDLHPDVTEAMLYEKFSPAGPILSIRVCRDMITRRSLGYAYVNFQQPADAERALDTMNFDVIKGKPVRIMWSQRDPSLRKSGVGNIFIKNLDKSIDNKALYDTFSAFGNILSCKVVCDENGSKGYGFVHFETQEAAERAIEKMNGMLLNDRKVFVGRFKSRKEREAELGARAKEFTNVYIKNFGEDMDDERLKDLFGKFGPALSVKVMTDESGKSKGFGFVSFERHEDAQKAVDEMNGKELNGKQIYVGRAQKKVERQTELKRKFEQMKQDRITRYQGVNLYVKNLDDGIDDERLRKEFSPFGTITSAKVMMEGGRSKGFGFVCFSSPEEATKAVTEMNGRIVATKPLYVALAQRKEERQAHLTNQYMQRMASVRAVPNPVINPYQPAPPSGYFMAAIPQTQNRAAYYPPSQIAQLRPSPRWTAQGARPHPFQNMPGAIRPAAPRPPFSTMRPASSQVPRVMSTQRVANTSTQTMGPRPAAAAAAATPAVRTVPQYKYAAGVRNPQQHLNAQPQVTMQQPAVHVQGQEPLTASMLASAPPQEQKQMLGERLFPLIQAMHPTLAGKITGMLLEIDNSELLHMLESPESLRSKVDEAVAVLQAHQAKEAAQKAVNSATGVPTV
Rce1 inhib: yeast Ras-converting enzyme inhibition; Q03530; yeast membranes, quenched prenylated peptide cleavage fluorescence; calls only; hit rate 0.27% among 290,000;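 active = fall in fluorescence gain of 50% or more versus controls, with final raw signal at or below 3038400; inconclusive = same 50% fall but final raw signal above 3038400; inactive = fall in fluorescence gain under 50%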;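 note: plate controls were neutral control wells for no effect and wells lacking membranes for full effect; tested at 10 µM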
Target sequence (Q03530 whole entry, looked up): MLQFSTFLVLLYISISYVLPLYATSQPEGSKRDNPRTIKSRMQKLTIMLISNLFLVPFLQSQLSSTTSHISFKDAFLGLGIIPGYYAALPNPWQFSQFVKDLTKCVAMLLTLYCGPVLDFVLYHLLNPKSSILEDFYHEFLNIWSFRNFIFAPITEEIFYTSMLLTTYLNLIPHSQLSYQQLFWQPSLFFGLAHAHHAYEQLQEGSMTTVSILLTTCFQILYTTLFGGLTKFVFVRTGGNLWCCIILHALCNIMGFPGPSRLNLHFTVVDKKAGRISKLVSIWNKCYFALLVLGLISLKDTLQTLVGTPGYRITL
MT1-MMP act inh RFP: recorded beside MT1-MMP act inh, whose call it bears; RFP signal change, %; measured here: RFP expression control read;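 0 = vehicle wells; hits needed this value within 50% of zero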
* marks the source's active call; other numbers are inactive results; i = inactive; ? = inconclusive; . = no result given; & = joins results of further samples; [ ] = remark or other dose.

No. | Compound | HIV Env fusion | eIF4H FP inh | UUG fidelity | CSC inhib | MT1-MMP act inh | MT1-MMP act inh RFP | PABP FP inh | Rce1 inhib
1 | COc1cccc(NS(=O)(=O)c2nc3nc(C)cc(C)n3n2)c1 | 12 | -3 | -7 | -10 | 2 | 2 | -2 | i
2 | Cc1cc(C(=O)COC(=O)Cc2n[nH]c(=O)c3ccccc23)c(C)n1-c1ccc2c(c1)OCO2 | 22 | 21 | . | 18 | -1 | -8 | -1 | i
3 | CC1CC(NC(=S)N(C)C)CC(C)(C)C1 (stereo not given) | -5 | . | -20 | . | -1 | 4 | . | .
4 | O=C(C1=C[C@H](C2CC2)C[C@H](OCCCCO)O1)N1CCOCC1 | -9[16.7 µM] | -3 | 11&-5 | 16 | 1 | 4 | -6 | i
5 | Cc1ccsc1C(=O)OCC(=O)N1CC(C)CC(C)C1 (stereo not given) | 6 | . | -6 | -11 | 3 | 3 | . | .
6 | Cc1ccccc1OCCN1CCC(Cc2ccccc2)CC1 | 21 | -2 | -10 | 51 | -4 | -1 | -2 | i
7 | Cc1c(N=Cc2ccco2)c(=O)n(-c2ccccc2)n1C | . | 5 | -8 | -13 | 2 | 3 | 2 | i
8 | Cc1cc(C(=O)CC#N)c(C)n1-c1ccc(OC(F)F)cc1 | . | 8 | -12 | 1 | -6 | -8 | 11 | i
9 | COC(=O)C1CCN(C(=O)c2ccc(OC)c(S(=O)(=O)N3CCCc4ccccc43)c2)CC1 | 4 | . | -13 | -6 | -3 | 1 | . | .
10 | O=C(CC[C@H]1O[C@@H](n2cnc3c(NC(=O)c4ccccc4)ncnc32)[C@H](O)[C@@H]1O)NCCc1cc2ccccc2[nH]1 | -10 | . | -10 | . | 2 | 3 | . | .
11 | CCCN=C(C)C1=C(O)c2ccccc2C1=O | -47 | -1 | . | -1 | 0 | 4 | 9 | .
12 | CC1CCN(C(=O)Cn2ncc3c4ccccc4n(C)c3c2=O)CC1 | -7 | 8 | -9 | . | 1 | 3 | -3 | i
13 | C[C@H](CO)N1C[C@H](C)[C@@H](CN(C)S(=O)(=O)c2cccs2)Oc2ccc(NC(=O)c3ccncc3)cc2C1=O | 4 | . | -3&-13 | -10 | -1 | 0 | . | .
14 | Cc1cc[n+](-c2ccccc2)c2ccccc12 | -15 | 6 | -13 | -4 | -4 | -24 | -15 | i
15 | COc1ccc(C(CNC(=O)c2cccc(NS(=O)(=O)c3ccc(Br)cc3)c2)N(C)C)cc1 (stereo not given) | -1 | . | 19 | . | 3 | 0 | . | i
16 | Cc1cc(C)c[n+](CC(=O)c2ccc(C)c([N+](=O)[O-])c2)c1 | 9 | 2 | -4 | -14 | -4 | 0 | 9 | i
17 | COC(=O)CCC(=O)c1oc2ccc(Br)cc2c1N | i | 10 | -21 | -4 | -7 | -11 | 22 | i
18 | O=[N+]([O-])c1cccc(/C=N/Nc2ccccn2)c1 | -46 | -9 | . | -7 | 0 | 1 | -5 | i
19 | COc1cc([N+](=O)[O-])ccc1NC(=O)/C=C\C(=O)O | 2 | -6 | . | -4 | -2 | 0 | -3 | i
20 | O=S(=O)(NCCCc1ccccc1)c1ccccc1 | . | -3 | 2 | -2 | -1 | 3 | -5 | i
21 | COc1ccc(C(NC(=O)c2ccc(F)cc2)c2ccccc2)cc1 (stereo not given) | . | -8 | . | 10 | -2 | -6 | -4 | i
22 | COc1ccc(CNC(=O)COc2cccnc2[N+](=O)[O-])cc1 | 1 | 0 | -11 | -8 | 2 | 0 | 6 | i
23 | CC(C)CN1C(=O)c2ccc(NC(=O)Cc3ccccc3)cc2C1=O | 10 | -2 | . | -4 | 2 | 1 | 2 | i
24 | CCN(CC)C(=O)C1=C(C)N(CCCOC)C(=O)C(CC(=O)NCCc2ccccn2)C1 (stereo not given) | 6 | . | -17 | . | 4 | 5 | . | .
25 | CCOC(=O)C1C(=O)CC(C)(O)C(C(=O)OCC)C1c1ccc(NC(C)=O)cc1 (stereo not given) | 7 | 1 | . | . | 1 | 4 | 1 | i
26 | CN1C(=O)NC(c2ccccc2)C2=C1CN(Cc1ccco1)C2=O (stereo not given) | -1 | 16 | 7 | -12 | -3 | 0 | 0 | i
27 | Cc1[nH]c2ccccc2c1/C=N/NC(=O)c1cccc(F)c1 | -8 | 6 | . | -9 | -3 | -2 | -4 | i
28 | Cc1cccc(NC(=S)c2nc3ccccc3s2)c1 | . | 2 | . | 26 | -1 | 6 | 14 | i
29 | COc1ccc(NC(=O)N2CCCC(c3nc(-c4ccc(F)cc4)no3)C2)cc1 (stereo not given) | 17 | -6 | . | -8 | 2 | -2 | -3 | i
30 | Cn1c(=O)oc2cc(S(=O)(=O)N3CCCCC3)ccc21 | 21 | 0 | -9 | . | 1 | 4 | -2 | i
31 | O=C(Cc1cccs1)N(Cc1cccs1)C1(C(=O)NC2CCCCC2)CCCCC1 | 79* | -11 | -14 | . | -19 | -4 | 7 | i
32 | COc1ccc(-c2nc(C3CCCCC3)c3cc(OC)ccc3n2)cc1 | 9 | . | -6 | 6 | 3 | -2 | . | i
33 | C[C@H]1CN([C@@H](C)CO)C(=O)c2cc(C#CC3CCCC3)cnc2O[C@H]1CN(C)C(=O)Cc1ccccn1 | -8&-13[16.7 µM] | . | 25&72&8 | . | 3 | 3 | . | .
34 | CCN(CC)CCNC(=O)c1ccc(-n2c(C)cc3c2CCCC3=O)cc1 | -1 | 1 | . | 20 | -1 | 2 | 6 | .
35 | COC(=O)c1ccc(CSc2ncnc3c2oc2ccccc23)o1 | . | 6 | 4 | 45 | 0 | 1 | -6 | i
36 | O=C(NCc1ccco1)c1cc(-c2ccccc2)c(N2CCOCC2)s1 | -33 | 1 | -4 | 10 | -4 | -4 | 6 | i
37 | COC(=O)c1onc(-c2c(Cl)cccc2Cl)c1C(=O)OC | 7 | -12 | -5 | 10 | 3 | 2 | -3 | i
38 | O=C(NC(=S)N1CCN(c2ccccc2)CC1)c1ccco1 | . | . | -15 | -4 | 3 | 2 | . | .
39 | COC(=O)COc1c(/C=C\c2nc(O)c([N+](=O)[O-])c(=O)[nH]2)cccc1OC | -10 | -3 | 1 | -2 | 0 | 3 | -2 | i
40 | COc1cc(CC(=O)OCC(=O)Nc2ccccc2C#N)cc(OC)c1OC | 10 | . | -23 | . | 3 | 1 | . | .

Along the list, quoted from above:
Nos. 33 to 40 in UUG fidelity read 25&72&8, ., 4, -4, -5, -15, 1, -23

The listing continues:
No. | Compound | HIV Env fusion | eIF4H FP inh | UUG fidelity | CSC inhib | MT1-MMP act inh | MT1-MMP act inh RFP | PABP FP inh | Rce1 inhib
41 | CC1(c2nnc(Cc3ccccc3)o2)CC(c2cccc(Cl)c2)=NO1 (stereo not given) | -1 | -13 | -15 | 1 | 2 | 0 | -7 | i
42 | COc1cccc(CNC(=O)c2ccc(C3SCCS3)cc2)c1 | -20 | -9 | -6 | 12 | 4 | 6 | -3 | i
43 | Cn1ccc2c(-c3ccc(C(N)=O)cc3)cc3c(c21)C1CCC3C1 (stereo not given) | 17 | . | 1 | . | -1 | -1 | . | .
44 | C=CCC[C@@H](Cc1ccc(F)cc1)C(=O)OCCNC(=O)[C@H](CC=C)CC(=O)NCCO | -14 | . | 10 | -17 | 5 | 3 | . | .
45 | O=S1(=O)CCN(Cc2cccc(C(F)(F)F)c2)CC1 | 6 | -8 | . | 5 | 0 | -2 | 5 | i
46 | CCCCCCSc1ccc([C@@H]2[C@H]3C(=O)N(C)C(=O)[C@H]3[C@]3(C(=O)OC)CCCCN23)cc1 | 34 | . | 4 | 30 | -11 | -4 | . | i
47 | O=C(Nc1ccc(Nc2ccccc2)cc1)c1ccccc1F | -60 | -5 | -25 | 46 | -1 | -3 | 12 | i
48 | NS(=O)(=O)c1cccc(NC(=O)COC(=O)C2CCN(S(=O)(=O)c3cccs3)CC2)c1 | -3 | -5 | 4 | -17 | 3 | 5 | 12 | i

A different layout for eleven compounds above:
1) COc1cccc(NS(=O)(=O)c2nc3nc(C)cc(C)n3n2)c1
2) Cc1cc(C(=O)COC(=O)Cc2n[nH]c(=O)c3ccccc23)c(C)n1-c1ccc2c(c1)OCO2
3) CC1CC(NC(=S)N(C)C)CC(C)(C)C1 (stereo not given)
4) O=C(C1=C[C@H](C2CC2)C[C@H](OCCCCO)O1)N1CCOCC1
5) Cc1ccsc1C(=O)OCC(=O)N1CC(C)CC(C)C1 (stereo not given)
6) Cc1ccccc1OCCN1CCC(Cc2ccccc2)CC1
7) Cc1c(N=Cc2ccco2)c(=O)n(-c2ccccc2)n1C
8) Cc1cc(C(=O)CC#N)c(C)n1-c1ccc(OC(F)F)cc1
9) COC(=O)C1CCN(C(=O)c2ccc(OC)c(S(=O)(=O)N3CCCc4ccccc43)c2)CC1
10) O=C(CC[C@H]1O[C@@H](n2cnc3c(NC(=O)c4ccccc4)ncnc32)[C@H](O)[C@@H]1O)NCCc1cc2ccccc2[nH]1
11) CCCN=C(C)C1=C(O)c2ccccc2C1=O
screen / no.	1	2	3	4	5	6	7	8	9	10	11
HIV Env fusion	12	22	-5	-9[16.7 µM]	6	21	.	.	4	-10	-47
eIF4H FP inh	-3	21	.	-3	.	-2	5	8	.	.	-1
UUG fidelity	-7	.	-20	11&-5	-6	-10	-8	-12	-13	-10	.
CSC inhib	-10	18	.	16	-11	51	-13	1	-6	.	-1
MT1-MMP act inh	2	-1	-1	1	3	-4	2	-6	-3	2	0
MT1-MMP act inh RFP	2	-8	4	4	3	-1	3	-8	1	3	4
PABP FP inh	-2	-1	.	-6	.	-2	2	11	.	.	9
Rce1 inhib	i	i	.	i	.	i	i	i	.	.	.

(next part)
No. | Compound | HIV Env fusion | eIF4H FP inh | UUG fidelity | CSC inhib | MT1-MMP act inh | MT1-MMP act inh RFP | PABP FP inh | Rce1 inhib
49 | CCOC(=O)[C@H]1[C@H]2COc3ccc(C)cc3[C@@H]2N2C(=O)c3ccc(Cl)cc3NC(=O)[C@@]12C | -43 | . | -7 | 15 | -10 | -4 | . | .
50 | COc1ccc(-c2c(C)c3ccc(O)cc3oc2=O)cc1 | -32 | . | -11 | 12 | 4 | 4 | . | i
51 | CC(=O)NC(Cc1ccccc1F)C(=O)NC1CCN(S(=O)(=O)c2ccccc2)CC1 (stereo not given) | 8 | 24 | -11 | . | 1 | 3 | 0 | i
52 | CCNS(=O)(=O)c1ccc(NC(=O)Nc2ccccc2OC)cc1 | -10 | -5 | . | 4 | 5 | 1 | -1 | i
53 | COc1ccccc1N1CCN(CCCCOc2ccc(C)cc2C)CC1 | 11 | 0 | 28 | 21 | 0 | 1 | 36 | i
54 | C=CCn1c(SCC(=O)N2CCN(c3ccc(F)cc3)CC2)nnc1-c1ccco1 | -68 | -2 | 4 | -2 | -5 | -21 | -28 | i
55 | CCOC(=O)c1c(-c2ccccc2)csc1NC(=O)CCN1CCOCC1 | 7 | 12 | . | ? | -3 | -3 | 20 | i
56 | CCOC(=O)C1CCCN(C(=O)Cn2cnc3c2c(=O)n(C)c(=O)n3C)C1 (stereo not given) | 19 | 6 | -19 | 0 | 3 | 3 | -7 | i
57 | CCc1cc2c(NCCC(=O)O)nc(C)nc2s1 | -100 | -7 | -8 | 0 | 1 | 6 | 1 | i
58 | Cc1cc(/C=N/NS(=O)(=O)c2ccc(F)c(Cl)c2)no1 | 11 | 6 | . | -8 | 1 | 4 | 3 | i
59 | COCCCC1CCN(C(=O)C2CCC(=O)N(CCc3cccc(F)c3)C2)CC1 (stereo not given) | . | 0 | 9 | -23 | 3 | 1 | 14 | i
60 | Cc1ccc(C(=O)N2CCN3C(=O)c4ccccc4C23c2ccccc2)cc1 (stereo not given) | 11 | 7 | . | -6 | -1 | 2 | 6 | i
